A1 apoptosis 2 – A1 inhibitors via caspase activation, primary screen, cell-based, luminescence, HTS, two replicates; MEF A1-2A-BIM cells, caspase-Glo luminescence, 3 h; percent of clofoctol response, DMSO zero; caspase activation, % (concentration not given with the values); 24,000 tested, under 10 active; AID 2465, 2010; in the data active = caspase activation above about 5.9%;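 note: wells of about 30 µL received 50 nL stock; the first replicate is given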
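Evaluation: Caspase-3/7 activity from luminescence increase | Assay system: A1-2A-BIM mouse embryonic fibroblasts | Quantity: 2500 MEF cells/well | Medium: RPMI-1640 plus 10% FBS | Detection: Caspase-Glo 3/7 luminescence, 1 h at room temperature | Dosing: 50 nL compound per well, pinned | Timing: Cells settled overnight, compound exposure 3 h at 37 °C, 5% CO2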
Numbers without * were called inactive.

Results for C[C@@H]1CN([C@@H](C)CO)C(=O)Cc2cc(NC(=O)Nc3ccc4c(c3)OCO4)ccc2O[C@H]1CN(C)C(=O)Nc1ccccc1 ?
A1 apoptosis 2: -1.9

Results for Cc1noc(C)c1NC(=O)Nc1ccc2c(c1)C(=O)N([C@H](C)CO)C[C@H](C)[C@@H](CN(C)C)OCCCC[C@H](C)O2 ?
A1 apoptosis 2: 0.8

Results for C[C@@H]1CN([C@@H](C)CO)C(=O)c2cc(NC(=O)Nc3ccc(C(F)(F)F)cc3)ccc2O[C@@H]1CN(C)C(=O)NC1CCCCC1 ?
A1 apoptosis 2: -0.3

Results for C[C@@H]1CCCCO[C@H](CN(C)C(=O)Nc2ccc(F)cc2)[C@H](C)CN([C@@H](C)CO)C(=O)c2cc(NC(=O)CCCN(C)C)ccc2O1 ?
A1 apoptosis 2: -0.2

Results for COc1cc(Cl)c(/C=N/NC(=O)c2ccccn2)c(Cl)c1OC ?
A1 apoptosis 2: -10

Results for COc1ccc(NC(=O)N(C)C[C@@H]2Oc3c(NC(=O)Nc4ccc(C(F)(F)F)cc4)cccc3C(=O)N([C@@H](C)CO)C[C@H]2C)cc1 ?
A1 apoptosis 2: -0.5

How did C[C@@H]1CN([C@@H](C)CO)C(=O)c2cc(NC(=O)C3CCCCC3)ccc2O[C@@H]1CN(C)Cc1ccncc1 do in these assays?
A1 apoptosis 2: 0.1

How did Cc1noc(C)c1NC(=O)N(C)C[C@@H]1OCc2cn(nn2)CCCC(=O)N([C@@H](C)CO)C[C@@H]1C do in these assays?
A1 apoptosis 2: 0.4

Results for C[C@H](CO)N1C[C@H](C)[C@H](CN(C)C(=O)c2ccccc2)OCCCC[C@H](C)Oc2ccc(NC(=O)Nc3ccc(F)cc3)cc2C1=O ?
A1 apoptosis 2: 0.6

How did C[C@@H]1CN([C@@H](C)CO)C(=O)c2cc(NC(=O)NC3CCCCC3)ccc2O[C@@H]1CN(C)S(=O)(=O)c1ccccc1 do in these assays?
A1 apoptosis 2: -1.1

Results for C[C@H](CO)N1C[C@H](C)[C@H](CN(C)C(=O)Nc2ccc(C(F)(F)F)cc2)Oc2ccc(NC(=O)C3CC3)cc2CC1=O ?
A1 apoptosis 2: 0.4

What do the screens show for `C[C@H]1CCCCO[C@@H](CN(C)Cc2ccccc2)[C@@H](C)CN([C@@H](C)CO)C(=O)c2cc(NC(=O)Nc3cccc4ccccc34)ccc2O1`?
A1 apoptosis 2: 0.4

How did COc1ccc(S(=O)(=O)N(C)C[C@H]2Oc3ccc(NC(=O)Nc4c(C)noc4C)cc3C(=O)N([C@H](C)CO)C[C@@H]2C)cc1 do in these assays?
A1 apoptosis 2: 2.3

What do the screens show for `Cc1cccc(CN(C)C[C@@H]2Oc3ncc(-c4cc5ccccc5o4)cc3C(=O)N([C@H](C)CO)C[C@@H]2C)c1`?
A1 apoptosis 2: -0.2

How did COc1ccc(NC(=O)Nc2ccc3c(c2)CC(=O)N([C@@H](C)CO)C[C@H](C)[C@@H](CN(C)Cc2ccc(C(=O)Nc4ccccc4N)cc2)O3)cc1 do in these assays?
A1 apoptosis 2: -0.9

What do the screens show for `C[C@H](CO)N1C[C@H](C)[C@@H](CN(C)Cc2ccc(-c3ccccc3)cc2)Oc2ccc(NS(C)(=O)=O)cc2C1=O`?
A1 apoptosis 2: 1.2

What do the screens show for `C[C@H]1CN([C@@H](C)CO)C(=O)Cc2cc(NC(=O)C3CC3)ccc2O[C@@H]1CN(C)CC1CC1`?
A1 apoptosis 2: 0.7

How did C[C@H](CO)N1C[C@H](C)[C@H](CN(C)Cc2ccncc2)Oc2ccc(NC(=O)Nc3ccc(C(F)(F)F)cc3)cc2CC1=O do in these assays?
A1 apoptosis 2: -0.7

What do the screens show for `C[C@@H]1CN([C@H](C)CO)C(=O)CCCn2nncc2CO[C@@H]1CN(C)C(=O)Nc1ccc(N2CCCCC2)cc1`?
A1 apoptosis 2: -0.3

How did C[C@H](CO)N1C[C@H](C)[C@H](CN(C)S(=O)(=O)c2ccc(C#N)cc2)Oc2ncc(C#CC(C)(C)O)cc2C1=O do in these assays?
A1 apoptosis 2: -0.1

What do the screens show for `Cc1noc(C)c1S(=O)(=O)Nc1ccc2c(c1)C(=O)N([C@@H](C)CO)C[C@H](C)[C@H](CN(C)Cc1ccc(C(=O)O)cc1)OCCCC[C@@H](C)O2`?
A1 apoptosis 2: -0.2

How did COc1ccc(S(=O)(=O)N(C)C[C@H]2Oc3ccc(NC(=O)Nc4ccc(C(F)(F)F)cc4)cc3C(=O)N([C@H](C)CO)C[C@H]2C)cc1 do in these assays?
A1 apoptosis 2: -0.2

How did C[C@@H]1CN([C@H](C)CO)C(=O)c2cc(NC(=O)C3CC3)ccc2O[C@@H]1CN(C)Cc1ccc(-c2ccccc2)cc1 do in these assays?
A1 apoptosis 2: 1.6

Results for C[C@@H]1CCCCO[C@H](CN(C)S(=O)(=O)c2ccccc2)[C@@H](C)CN([C@@H](C)CO)C(=O)c2cc(NC(=O)Nc3cccc4ccccc34)ccc2O1 ?
A1 apoptosis 2: 0.3

What do the screens show for `C[C@@H]1CCCCO[C@@H](CN(C)S(=O)(=O)c2ccccc2)[C@@H](C)CN([C@@H](C)CO)C(=O)c2cc(NS(=O)(=O)c3ccc(F)cc3)ccc2O1`?
A1 apoptosis 2: -0.6

What do the screens show for `O=C(OC(C(=O)NCc1ccccc1)c1ccco1)c1ccccc1` (stereo not drawn)?
A1 apoptosis 2: 0.2

What do the screens show for `C[C@@H]1CN([C@H](C)CO)C(=O)c2cc(NS(=O)(=O)c3cccs3)ccc2O[C@@H](C)CCCCO[C@@H]1CN(C)Cc1ccc(C(=O)O)cc1`?
A1 apoptosis 2: -0.6

Results for C[C@@H]1CN([C@H](C)CO)C(=O)Cc2cc(NC(=O)CCC(F)(F)F)ccc2O[C@H]1CN(C)Cc1ccncc1 ?
A1 apoptosis 2: 0.6

How did Cc1noc(C)c1NC(=O)Nc1ccc2c(c1)C(=O)N([C@@H](C)CO)C[C@@H](C)[C@H](CN(C)C(=O)Nc1ccc(C(F)(F)F)cc1)O2 do in these assays?
A1 apoptosis 2: -0.2

Results for C[C@@H]1CCCCO[C@@H](CN(C)C(=O)Nc2ccc(C(F)(F)F)cc2)[C@H](C)CN([C@H](C)CO)C(=O)c2cc(NS(=O)(=O)c3ccc(Cl)cc3)ccc2O1 ?
A1 apoptosis 2: 1.2

How did Cc1noc(C)c1S(=O)(=O)Nc1ccc2c(c1)C(=O)N([C@@H](C)CO)C[C@@H](C)[C@@H](CN(C)Cc1ccc(C(=O)Nc3ccccc3N)cc1)O2 do in these assays?
A1 apoptosis 2: 1.5

Results for C[C@@H]1CN([C@@H](C)CO)C(=O)Cc2cc(NC(=O)NC3CCCCC3)ccc2O[C@@H]1CN(C)S(=O)(=O)c1ccc(F)cc1 ?
A1 apoptosis 2: -1.9

Results for C[C@@H]1CN([C@@H](C)CO)C(=O)Cc2cc(N(C)C)ccc2O[C@H]1CN(C)Cc1ccccc1 ?
A1 apoptosis 2: -0.6

What do the screens show for `COc1ccc(CN(C)C[C@H]2Oc3ccc(NC(=O)Cn4cnnn4)cc3C(=O)N([C@H](C)CO)C[C@H]2C)cc1`?
A1 apoptosis 2: 0.1

What do the screens show for `CC12N=C3SCC(=O)N3[C@H](c3ccccc3O1)[C@H]2CO`?
A1 apoptosis 2: -0.2

What do the screens show for `Cc1ccc(S(=O)(=O)Nc2ccc3c(c2)C(=O)N([C@@H](C)CO)C[C@H](C)[C@@H](CN(C)C(=O)Nc2ccc(C(F)(F)F)cc2)OCCCC[C@@H](C)O3)cc1`?
A1 apoptosis 2: -1.4

Results for COc1ccc(NC(=O)Nc2ccc3c(c2)C(=O)N([C@H](C)CO)C[C@H](C)[C@@H](CN(C)C(=O)Nc2ccccc2)OCCCC[C@H](C)O3)cc1 ?
A1 apoptosis 2: 0.2

What do the screens show for `C[C@H]1CN([C@@H](C)CO)C(=O)Cc2cc(NC(=O)Cc3ccccc3)ccc2O[C@@H]1CN(C)CC1CC1`?
A1 apoptosis 2: -1.9

What do the screens show for `C[C@@H]1CN([C@@H](C)CO)C(=O)c2cccc(NS(=O)(=O)c3cccs3)c2O[C@@H]1CN(C)C(=O)Nc1ccc(C(F)(F)F)cc1`?
A1 apoptosis 2: 1.4

How did C[C@@H]1CN([C@@H](C)CO)C(=O)c2cc(NC(=O)Nc3cccc4ccccc34)ccc2O[C@@H]1CN(C)C(=O)Nc1ccc2c(c1)OCO2 do in these assays?
A1 apoptosis 2: 0.3

Results for C[C@@H]1CCCCO[C@H](CN(C)S(=O)(=O)c2ccc(F)cc2)[C@@H](C)CN([C@H](C)CO)C(=O)c2cc(NC(=O)NC3CCCCC3)ccc2O1 ?
A1 apoptosis 2: 0.6

How did Cc1noc(C)c1S(=O)(=O)Nc1cccc2c1O[C@H](CN(C)C(=O)Nc1cccc3ccccc13)[C@H](C)CN([C@@H](C)CO)C2=O do in these assays?
A1 apoptosis 2: -0.2

How did Cc1noc(C)c1NC(=O)Nc1ccc2c(c1)C(=O)N([C@@H](C)CO)C[C@@H](C)[C@H](CN(C)C(=O)NC1CCCCC1)O2 do in these assays?
A1 apoptosis 2: 0.6

How did C[C@@H]1CN([C@@H](C)CO)C(=O)c2cc(NC(=O)Nc3ccc4c(c3)OCO4)ccc2O[C@@H]1CN(C)C(=O)Nc1ccc(C(F)(F)F)cc1 do in these assays?
A1 apoptosis 2: -0.9

What do the screens show for `Cc1noc(C)c1NC(=O)Nc1cccc2c1O[C@H](CN(C)C(=O)Nc1cccc3ccccc13)[C@H](C)CN([C@H](C)CO)C2=O`?
A1 apoptosis 2: 0.4

How did COc1ccc(S(=O)(=O)Nc2ccc3c(c2)C(=O)N([C@H](C)CO)C[C@@H](C)[C@H](CN(C)Cc2ccc4c(c2)OCO4)O3)cc1 do in these assays?
A1 apoptosis 2: 0.6

What do the screens show for `C[C@H](CO)N1C[C@H](C)[C@H](CN(C)S(=O)(=O)c2ccc(Cl)cc2)Oc2ccc(NS(=O)(=O)c3cn(C)cn3)cc2C1=O`?
A1 apoptosis 2: -0.1

What do the screens show for `C[C@H](CO)N1C[C@H](C)[C@H](CN(C)C(=O)NC2CCCCC2)Oc2ccc(NC(=O)CCCCCC(=O)Nc3ccccc3N)cc2CC1=O`?
A1 apoptosis 2: 0.6

Results for COc1ccc(NC(=O)Nc2ccc3c(c2)CC(=O)N([C@@H](C)CO)C[C@@H](C)[C@H](CN(C)Cc2ccc(C(F)(F)F)cc2)O3)cc1 ?
A1 apoptosis 2: 0.9

How did C[C@@H]1CN([C@H](C)CO)C(=O)c2cc(NC(=O)Nc3ccccc3)ccc2O[C@@H](C)CCCCO[C@@H]1CN(C)Cc1ccc(C(=O)O)cc1 do in these assays?
A1 apoptosis 2: 0.5

Results for C[C@H](CO)N1C[C@H](C)[C@@H](CN(C)C(=O)CCCN(C)C)OCCCC[C@H](C)Oc2ccc(NC(=O)c3ccncc3)cc2C1=O ?
A1 apoptosis 2: 0.8

Results for COc1ccc(NC(=O)Nc2cccc3c2O[C@H](CN(C)S(=O)(=O)c2cn(C)cn2)[C@@H](C)CN([C@H](C)CO)C3=O)cc1 ?
A1 apoptosis 2: 0.4

Results for C[C@H]1CCCCO[C@@H](CN(C)Cc2ccc(C(=O)O)cc2)[C@@H](C)CN([C@@H](C)CO)C(=O)c2cc(NC(=O)C3CCCCC3)ccc2O1 ?
A1 apoptosis 2: -0.3

How did Cc1ccc(S(=O)(=O)Nc2ccc3c(c2)CC(=O)N([C@H](C)CO)C[C@H](C)[C@H](CN(C)Cc2ccncc2)O3)cc1 do in these assays?
A1 apoptosis 2: -0.1

How did COc1ccc(NC(=O)Nc2ccc3c(c2)CC(=O)N([C@H](C)CO)C[C@@H](C)[C@H](CN(C)S(=O)(=O)c2cccs2)O3)cc1 do in these assays?
A1 apoptosis 2: -0.7

What do the screens show for `Cc1noc(C)c1S(=O)(=O)Nc1ccc2c(c1)C(=O)N([C@H](C)CO)C[C@@H](C)[C@H](CN(C)C(=O)Cc1ccccc1)OCCCC[C@@H](C)O2`?
A1 apoptosis 2: 0.1

What do the screens show for `COc1ccc(S(=O)(=O)Nc2ccc3c(c2)C(=O)N([C@@H](C)CO)C[C@H](C)[C@H](CN(C)Cc2ccc4c(c2)OCO4)OCCCC[C@@H](C)O3)cc1`?
A1 apoptosis 2: -0.6

As a working copy, some entries already given.
How did C[C@@H]1CN([C@H](C)CO)C(=O)c2cc(NC(=O)Nc3ccccc3)ccc2O[C@@H](C)CCCCO[C@@H]1CN(C)Cc1ccc(C(=O)O)cc1 do in these assays?
A1 apoptosis 2: 0.5

Results for C[C@H](CO)N1C[C@H](C)[C@@H](CN(C)C(=O)CCCN(C)C)OCCCC[C@H](C)Oc2ccc(NC(=O)c3ccncc3)cc2C1=O ?
A1 apoptosis 2: 0.8

Results for COc1ccc(NC(=O)Nc2cccc3c2O[C@H](CN(C)S(=O)(=O)c2cn(C)cn2)[C@@H](C)CN([C@H](C)CO)C3=O)cc1 ?
A1 apoptosis 2: 0.4

Results for C[C@H]1CCCCO[C@@H](CN(C)Cc2ccc(C(=O)O)cc2)[C@@H](C)CN([C@@H](C)CO)C(=O)c2cc(NC(=O)C3CCCCC3)ccc2O1 ?
A1 apoptosis 2: -0.3

How did Cc1ccc(S(=O)(=O)Nc2ccc3c(c2)CC(=O)N([C@H](C)CO)C[C@H](C)[C@H](CN(C)Cc2ccncc2)O3)cc1 do in these assays?
A1 apoptosis 2: -0.1

How did COc1ccc(NC(=O)Nc2ccc3c(c2)CC(=O)N([C@H](C)CO)C[C@@H](C)[C@H](CN(C)S(=O)(=O)c2cccs2)O3)cc1 do in these assays?
A1 apoptosis 2: -0.7

What do the screens show for `Cc1noc(C)c1S(=O)(=O)Nc1ccc2c(c1)C(=O)N([C@H](C)CO)C[C@@H](C)[C@H](CN(C)C(=O)Cc1ccccc1)OCCCC[C@@H](C)O2`?
A1 apoptosis 2: 0.1

What do the screens show for `COc1ccc(S(=O)(=O)Nc2ccc3c(c2)C(=O)N([C@@H](C)CO)C[C@H](C)[C@H](CN(C)Cc2ccc4c(c2)OCO4)OCCCC[C@@H](C)O3)cc1`?
A1 apoptosis 2: -0.6

These rows are one share of the data, so the mix of outcomes need not match the whole.
